Screens as filed in PubChem BioAssay.
GIV Gai3 FP – inhibitors of GIV GBA-motif binding to rat Galpha-i3; 210,000 tested, 0.42% active; percent of control (FP), % (no concentration beside the values); Galpha-i3/FITC-GIV peptide fluorescence polarization, 90 min; hits give low values; scaled: aluminum fluoride 0%, vehicle 100%; AID 1224905;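 active means replicate mean at 85% of control or lower, very high polarization wells dropped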;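 further: wells of about 15 µL received 100 nL stock; the first replicate is given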
Target sequence (P08753 whole entry, looked up): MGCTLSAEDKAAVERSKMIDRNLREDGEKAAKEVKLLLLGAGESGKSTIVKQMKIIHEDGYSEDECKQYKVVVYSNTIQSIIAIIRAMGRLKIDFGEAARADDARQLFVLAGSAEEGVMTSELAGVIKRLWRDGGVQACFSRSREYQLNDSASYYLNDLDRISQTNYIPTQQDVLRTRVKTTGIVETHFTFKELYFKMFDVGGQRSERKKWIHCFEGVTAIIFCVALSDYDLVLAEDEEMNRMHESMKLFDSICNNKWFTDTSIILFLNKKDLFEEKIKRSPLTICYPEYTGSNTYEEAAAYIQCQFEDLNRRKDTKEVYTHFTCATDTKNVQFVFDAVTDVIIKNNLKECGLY
HCMV NEC inh – disrupts HCMV UL50-UL53 complex binding; HTRF UL50-UL53 interaction, normalized percent inhibition; 190,000 tested, 0.15% active; AID 1918969; inhibition, % (no concentration beside the values);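 active means both replicates at 50% or more, plus weaker picks with an unusually low signal ratio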;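 further: stock transfer was 100 nL into about 20 µL; 0% = negative control wells and 100% = wells with untagged competitor protein; inactives centre near -12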
Sa growth 42C – inhibitors of Staphylococcus aureus growth at 42 °C | S. aureus RN4220 growth, OD600, 20 h; hits give low values | relative growth, % (test concentration not listed) | 170,000 tested, 0.53% active | AID 720641;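 active means growth at 42 °C up to 50% and 20 or more points under that at 30 °C, or under 10% at both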;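 further: 300 nL library stock went into each well; scaled to the means of positive and negative controls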
Sa growth 42C second temp – recorded beside Sa growth 42C, whose call it bears; relative growth, %; measured here: growth at 30 °C;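 optical density after 20 h as mean of two plates; 100% = untreated growth and lower means inhibition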
An asterisk follows results filed as active; nt = not tested or not shown; & = joins results of further samples.

nr	compound	GIV Gai3 FP	HCMV NEC inh	Sa growth 42C	Sa growth 42C second temp
1	C=Cc1ccc(Cn2c(C(=O)O)c(CNC3CCCCC3)c3ccc(C)cc32)cc1	104	nt	101	90
2	COCCn1nnc2cc(S(=O)(=O)N3CCCC3C(=O)N3CCN(c4ccccc4)CC3)ccc21 (stereo unspecified)	106	1	nt	nt
3	CC(C)NC(=O)CN1C(=O)c2cccnc2Sc2ccccc21	101	nt	85	93
4	COc1ccc(/C=C2/C(C)=C(C#N)c3nc(N)c(C#N)c(C)c32)cc1OC	108	-8	nt	nt
5	O=C(O)CCc1ccc(-c2cccs2)n1-c1cccc(O)c1	nt	-21	84	63
6	COC(=O)c1c(S(N)(=O)=O)c(C)n(C)c1C	101	-1	114	89
7	CSc1nnc(COc2ccc(C(C)C)cc2)o1	100	-10	94	103
8	OC[C@@H](O)C(O[C@@H]1O[C@H](CO)[C@H](O)[C@H](O)[C@H]1O)[C@H](O)[C@@H](O)CO (stereo partly specified)	nt	-46	87	92
9	Cc1ccccc1C1C2=C(CC(c3ccc(Cl)cc3)CC2=O)Nc2onc(C)c21 (stereo unspecified)	108	-9	nt	nt
10	O=C(OCc1ccc(Cl)cc1Cl)c1ccncc1	97	6	100	74
11	Cn1c(=O)c(=O)n(C)c2cc(S(=O)(=O)CCC(=O)NC3CCCCCCC3)ccc21	104	-3	111	89
12	CC(C)(C)c1ccc(-c2nnc(-c3ccccc3NC(=O)c3ccc(F)cc3F)o2)cc1	108	4	109	96
13	CC(C)CNc1cc(NCCO)c2c3c(onc13)-c1ccccc1C2=O	-54*	nt	98	65
14	CCC(CC)NCC(=O)Nc1cc2oc3ccccc3c2cc1OC	nt	-37	102	90
15	Cc1ccc(C)c(C(C)Sc2ncccc2C(=O)O)c1 (stereo unspecified)	103	-3	156	97
16	CCOC(=O)C1=C(C)Nc2ccccc2N=C1NC(=O)CCNC(=O)c1ccco1	nt	-10	103	95
17	Cc1nn(CCCC(=O)NCCN2CCOCC2)c(=O)c2c1sc1ccccc12	102	-16	107	88
18	O=C(Oc1nsnc1N1CCCCC1)N(c1ccccc1)c1ccccc1	101	nt	84	76
19	N#CC(C(=O)Nc1ccc(Cl)c(Cl)c1)=C1Nc2ccccc2N1	106	-12	109	85
20	CCOC(=O)c1c(C)n(C)c2ccccc12	nt	-11	86	80
21	O=C(O)c1cc(N2CCCCC2)ccc1NC(=O)C1CCCC1	102	-38	nt	nt
22	COc1ccc(-c2noc(N3CCCC(C(=O)Nc4ccc(S(N)(=O)=O)cc4)C3)n2)cc1 (stereo unspecified)	105	1	nt	nt
23	CCN(CC)S(=O)(=O)c1ccc2oc(C(=O)NCCCN3CCOCC3)c(C)c2c1	104	-13	87	87
24	O=C(NCCC1=CCCCC1)C1CCCN(c2ccc(-c3ccc(F)cc3)nn2)C1 (stereo unspecified)	110	7	nt	nt
25	COc1cc(N2C(=O)CSCC2=O)c(Cl)cc1Cl	100	-26	nt	nt
26	Cc1ccc(NC(=O)c2cc(S(=O)(=O)N3CCc4ccccc43)ccc2F)cc1Cl	106	nt	117	99
27	COc1ccc(/C=C/C(=O)Nc2nc(-c3cccs3)ns2)cc1	100	-26	100	87
28	Cn1c(NCCO)nc2ccccc21	nt	-49	121	84
29	COc1ccc(C(=O)OCC(=O)N2CC3(C)CC2CC(C)(C)C3)cc1 (stereo unspecified)	nt	-20	94	87
30	COc1ccc(NC(=O)c2cnc(Nc3ccc(C)c(Cl)c3)c3ccccc23)cc1OC	100	-24	91	88
31	COc1ccc(C2(C(=O)O)CCOCC2)cc1	108	nt	82	93
32	S=C1NC2=C(C(c3ccccc3)N1)N1CCC2CC1 (stereo unspecified)	100	nt	108	79
33	CN(CC(=O)NC1CCCCCC1)c1nnc(N2CCCC2=O)s1	100	-25	77	85
34	Cc1noc(Cn2c(=O)c3ccccc3n(CC(=O)Nc3ccc(C(C)C)cc3)c2=O)n1	110	nt	111	92
35	COc1ccc(NC(=O)NCCNC(=O)c2nonc2N)cc1	102	-31	nt	nt
36	Cc1cc(C(=O)Nc2ccc3c(c2)OCCO3)c2c(=O)n(C)c(=O)n(C)c2n1	109	1	nt	nt
37	CCOC(=O)Cc1ccc(NC(=O)n2ncc3c(C)cccc32)cc1	102	-36	108	85
38	Cc1cc(C)n(CCc2nc3c4ccccc4nc(SCc4ccc(Cl)cc4)n3n2)n1	101	nt	105	90
39	Cc1nc(N2CCN(C)CC2)c2sc(=S)n(-c3ccccc3)c2n1	102	34	90	86
40	Cc1nc2cc(Cl)ccc2n1CO	114	-40	86	69
41	C=CCOC1=NC2C(C(=O)N(C)C(=O)N2C)N1C (stereo unspecified)	nt	13	87	116
42	CCc1ccc(C=C2C(=O)OC(C)(C)OC2=O)o1	99	-56	91	82
43	COc1ccccc1/C=C/c1ccccc1OC	103	nt	114	89
44	CCOC(=O)c1c(NC(=O)COc2ccccc2)sc(C(=O)Nc2cccc(Cl)c2C)c1C	102	-6	nt	nt
45	COc1ccc(OC)c(NC(=O)c2nc(S(=O)(=O)Cc3ccc(F)cc3)ncc2Cl)c1	94	-11	-1.1*	1.6*
46	Cc1ccc(C)c(NC(=O)Cn2c(=O)n(Cc3ccc4c(c3)OCO4)c(=O)c3ccc(C(=O)NC4CCCCC4)cc32)c1	101	-28	104	89
47	CC(Sc1nc(-c2ccccc2)cc(C(F)(F)F)n1)C(=O)NCCCn1ccnc1 (stereo unspecified)	100	nt	107	92
48	CC(C)NC(=O)C1CC(=O)N(c2ccc(Oc3ccccc3)cc2)C1 (stereo unspecified)	98	-1	90	87
49	Cc1ccc2[nH]c(=O)c3cc(C(=O)N4CCc5ccccc54)sc3c2c1	103	nt	94	85
50	CN(C)C(=O)c1ccccc1NS(=O)(=O)c1ccc(Br)cc1	nt	6	69	96
51	CCOC(=O)C1C(=O)C=C(c2ccco2)CC1c1ccc(C)cc1 (stereo unspecified)	115	-14	93	91
52	O=C1C=C(NCCc2ccccc2)CC(c2ccco2)C1 (stereo unspecified)	100	nt	130	74
53	COC(CNS(=O)(=O)c1ccc2c(c1)c(=O)n(C)c(=O)n2C)OC	100	-29	89	83
54	CCC(C(=O)Nc1cccc(Cl)c1C)n1nc(-c2ccc(C)cc2)ccc1=O (stereo unspecified)	104	5	100	84
55	Cc1ccc(-n2nnc(-c3ccc(Cl)cc3)n2)cc1	104	-38	96	88
56	COc1ccc(C(=O)OCC(=O)NC2(C#N)CCCC2)cc1F	nt	3	102	97
57	O=S(=O)(NCC(c1ccco1)N1CCOCC1)c1ccc(Br)cc1 (stereo unspecified)	96	nt	110	89
58	CC(C)Oc1ccc(C(=O)N2CCN(CCc3ccccn3)CC2)cc1	97&108	-22&16	97	87
59	FC(F)Oc1ccc(-c2cn3c(n2)sc2ccccc23)cc1	nt	4	96	99
60	CCN(CC)S(=O)(=O)c1ccc2c(c1)N(CC(=O)N1CCN(c3cccc(Cl)c3)CC1)C(=O)CO2	96	nt	103	83

Two of the compounds above, screen by screen:
[43] COc1ccccc1/C=C/c1ccccc1OC
[34] Cc1noc(Cn2c(=O)c3ccccc3n(CC(=O)Nc3ccc(C(C)C)cc3)c2=O)n1

| assay / entry | 43 | 34 |
| --- | --- | --- |
| GIV Gai3 FP | 103 | 110 |
| HCMV NEC inh | nt | nt |
| Sa growth 42C | 114 | 111 |
| Sa growth 42C second temp | 89 | 92 |

(cont.)
nr	compound	GIV Gai3 FP	HCMV NEC inh	Sa growth 42C	Sa growth 42C second temp
61	CC(C)(C)OC(=O)N1CCC(c2c(C(=O)N3CCN(C(=O)c4ccco4)CC3)cnn2-c2ccccc2Cl)CC1	105	nt	92	88
62	NCCc1cnn(-c2ccccc2)c1	105	9	85	87
63	CCN1CCN(Cc2c(O)ccc3c(=O)c(-c4ccc(Cl)cc4)c(C(F)(F)F)oc23)CC1	105	-15	nt	nt
64	Cc1noc(C)c1COC(=O)c1cccc(S(=O)(=O)N2CCCCC2)c1	nt	-27	76	88
65	O=C(CCN1C(=O)/C(=C/c2ccc3c(c2)OCO3)SC1=S)NC1=NCCS1	84*	-51	nt	nt
66	Cc1cc(C)cc(Oc2nc3ccccc3n3c(=O)[nH]nc23)c1	106	-26	nt	nt
67	CCCN(CCC)Cc1c(C(=O)N/N=C/c2ccoc2)nnn1-c1nonc1N	111	24	119	95
68	O/N=C/c1ccccc1Br	nt	-6	124	91
69	Nc1cc(N)nc(SCC(=O)c2ccccc2)n1	107	-34	96	87
70	Cc1c(C(=O)N2CCC(C)CC2)c(S(=O)(=O)Nc2cccc(C(F)(F)F)c2)c(C)n1C	102	nt	85	53
71	C=CCN=C1SC(CC)C(=O)N1S(=O)(=O)c1ccc(C)cc1 (stereo unspecified)	107	-8	97	76
72	Cc1ccc(CNC(=O)C2CCN(S(=O)(=O)N3CCCCC3)CC2)cc1	100	nt	93	86
73	O=C(Nc1cccc(CCc2nc3ccccc3[nH]2)c1)c1cc2cc(Cl)ccc2[nH]1	106	-24	nt	nt
74	CCc1ccc(NC(=O)Cn2cc(S(=O)(=O)c3ccc(F)cc3)c(=O)c3cc(OC)ccc32)cc1	103	-10	111	90
75	CC(C)COC(=O)Cn1nnc2sc(-c3ccccc3)cc2c1=O	104	-34	101	86
76	CCOC(=O)c1[nH]c(C)c(S(=O)(=O)Nc2ccc(OC)cc2OC)c1C	105	-3	nt	nt
77	O=C(CN(c1ccc(Cl)c(C(F)(F)F)c1)S(=O)(=O)c1ccccc1)N1CCc2ccccc2C1	109	-7	97	94
78	Cc1ccc(CSc2nnc3n(CC(C)C)c(=O)c4sccc4n23)cc1	100	-27	nt	nt
79	Clc1cccc2nc3n(c12)CCN(CCc1ccccc1)C3	98	-25	nt	nt
80	Cc1ccc2nc(Nc3cccc(Cl)c3C)c(-n3nc(C)cc3C)nc2c1	111	4	104	105
81	CCn1cc(C(=O)O)c(=O)c2cc(F)c(NN3C(=O)CSC3c3ccccc3Cl)cc21 (stereo unspecified)	nt	-22	108	46
82	COc1ccc(CN(C)C(=O)c2cnc(OC)cc2C(F)(F)F)c(OC)c1	103	-28	96	89
83	O=C(NCc1ccco1)c1nc(-c2cccc(F)c2)n2c1CCCCC2	105	-23	96	83
84	Cc1cc(C)c(S(=O)(=O)Nc2ccc(-c3ccc(N4CCC(C)CC4)nn3)cc2)cc1C	106&98	-11	107	98
85	COc1ccccc1NC(=O)Nc1nc(CC(=O)NC2CCCCC2)cs1	103	-8	nt	nt
86	CCOC(=O)N1CCC(=NNc2nc3ccccc3[nH]2)CC1	nt	-12	106	90

Structural class, those above with an aryl methoxy group.
nr	compound	GIV Gai3 FP	HCMV NEC inh	Sa growth 42C	Sa growth 42C second temp
4	COc1ccc(/C=C2/C(C)=C(C#N)c3nc(N)c(C#N)c(C)c32)cc1OC	108	-8	nt	nt
14	CCC(CC)NCC(=O)Nc1cc2oc3ccccc3c2cc1OC	nt	-37	102	90
22	COc1ccc(-c2noc(N3CCCC(C(=O)Nc4ccc(S(N)(=O)=O)cc4)C3)n2)cc1 (stereo unspecified)	105	1	nt	nt
25	COc1cc(N2C(=O)CSCC2=O)c(Cl)cc1Cl	100	-26	nt	nt
27	COc1ccc(/C=C/C(=O)Nc2nc(-c3cccs3)ns2)cc1	100	-26	100	87
29	COc1ccc(C(=O)OCC(=O)N2CC3(C)CC2CC(C)(C)C3)cc1 (stereo unspecified)	nt	-20	94	87
30	COc1ccc(NC(=O)c2cnc(Nc3ccc(C)c(Cl)c3)c3ccccc23)cc1OC	100	-24	91	88
31	COc1ccc(C2(C(=O)O)CCOCC2)cc1	108	nt	82	93
35	COc1ccc(NC(=O)NCCNC(=O)c2nonc2N)cc1	102	-31	nt	nt
43	COc1ccccc1/C=C/c1ccccc1OC	103	nt	114	89
45	COc1ccc(OC)c(NC(=O)c2nc(S(=O)(=O)Cc3ccc(F)cc3)ncc2Cl)c1	94	-11	-1.1*	1.6*
56	COc1ccc(C(=O)OCC(=O)NC2(C#N)CCCC2)cc1F	nt	3	102	97
74	CCc1ccc(NC(=O)Cn2cc(S(=O)(=O)c3ccc(F)cc3)c(=O)c3cc(OC)ccc32)cc1	103	-10	111	90
76	CCOC(=O)c1[nH]c(C)c(S(=O)(=O)Nc2ccc(OC)cc2OC)c1C	105	-3	nt	nt
82	COc1ccc(CN(C)C(=O)c2cnc(OC)cc2C(F)(F)F)c(OC)c1	103	-28	96	89
85	COc1ccccc1NC(=O)Nc1nc(CC(=O)NC2CCCCC2)cs1	103	-8	nt	nt
